Screening results deposited in PubChem by ICCB-Longwood Screening Facility, Harvard Medical School.
Sa growth inh: blocks Staphylococcus aureus growth. S. aureus RN4220 growth, OD600, 20 h, 42 °C; active compounds read low. relative growth, % (test concentration not listed). 0.53% of 170,000 active. AID 720641;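 active = growth at 42 °C up to 50% and 20 or more points under that at 30 °C, or under 10% at both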;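 also: 300 nL library stock went into each well; scaled to the means of positive and negative controls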
HCMV NEC inh: inhibitors of HCMV UL50-UL53 nuclear egress complex interaction; HTRF UL50-UL53 interaction, normalized percent inhibition; inhibition, % (test concentration not listed); 0.15% of 190,000 active;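 active = both replicates at 50% or more, plus weaker picks with an unusually low signal ratio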;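 also: stock transfer was 100 nL into about 20 µL; 0% = negative control wells and 100% = wells with untagged competitor protein; inactives centre near -12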
GIV Gai3 FP: blocks GIV peptide binding to rat Galpha-i3 | 0.42% of 210,000 active | Galpha-i3/FITC-GIV peptide fluorescence polarization, 90 min; active compounds read low; scaled: aluminum fluoride 0%, vehicle 100% | AID 1224905 | percent of control (FP), % (concentration not given with the values);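 active = replicate mean at 85% of control or lower, very high polarization wells dropped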;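 also: wells of about 15 µL received 100 nL stock; the first replicate is given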
Target sequence (P08753 whole entry, looked up): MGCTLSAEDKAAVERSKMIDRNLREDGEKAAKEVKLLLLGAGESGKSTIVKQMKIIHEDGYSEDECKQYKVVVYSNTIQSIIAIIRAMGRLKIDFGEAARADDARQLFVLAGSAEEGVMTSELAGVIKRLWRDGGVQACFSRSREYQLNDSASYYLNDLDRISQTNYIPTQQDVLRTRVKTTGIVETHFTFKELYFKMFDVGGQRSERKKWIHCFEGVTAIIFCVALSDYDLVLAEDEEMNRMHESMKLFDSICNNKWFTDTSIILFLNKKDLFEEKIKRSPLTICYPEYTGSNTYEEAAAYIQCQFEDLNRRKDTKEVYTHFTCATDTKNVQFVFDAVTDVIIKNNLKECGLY
Sa growth inh second temp: second read-out of Sa growth inh, no call of its own (marks repeat the call); relative growth, %; measured here: growth at 30 °C;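 optical density after 20 h as mean of two plates; 100% = untreated growth and lower means inhibition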
* = called active by the depositor; . = no result given; & = joins results of further samples.

SMILES	Sa growth inh	Sa growth inh second temp	HCMV NEC inh	GIV Gai3 FP
Cc1cn(C2CC3OCC3O2)c(=O)[nH]c1=O (configuration not stated)	93	89	-17	113
CCOC(=O)c1ccc2nsnc2c1	100	83	-69	101
CCc1ccc(Oc2c(C(F)(F)F)oc3c(CN4CCC(C)CC4)c(O)ccc3c2=O)cc1	97	94	-9	101
CC(=O)NCCc1csc(-c2cccc(F)c2)n1	.	.	-42	102
CCN1CCN(C(=O)c2ccc(/C=C3/Sc4ccccc4N(Cc4ccccc4C)C3=O)cc2)CC1	97	86	.	108
Cn1c(O)c(/C=N/N2CCOCC2)c2ccccc21	111	85	.	104
CCC(=O)c1ccc(OCC(=O)OC(C)C(=O)Nc2ccc3c(c2)OCO3)cc1 (configuration not stated)	91	89	-23	.
O=C(c1snc2ccc(Cl)cc12)N1CCc2ccccc2C1	109	85	-17	.
COc1ccc(OC)c(NC(=O)CN(c2ccc(OC)c(OC)c2)S(=O)(=O)c2ccc(C)cc2)c1	.	.	25	113
Cc1occc1-c1nnc(SCCCC(=O)N2CCOCC2)n1-c1ccccc1	97	89	-14	.
CSc1nsc(SC)c1NC(=O)Nc1ccccn1	105	79	-5	.
O=c1oc2ccc3ccccc3c2cc1-c1nc(-c2ccccc2F)no1	88	81	-17	124
COCc1cc(=O)oc2cc(NC(=O)c3ccc(C(C)(C)C)cc3)ccc12	116	75	-6	101
Cc1ccc(NC(=O)c2c(Nc3ccccc3C)sc(C(=O)c3ccccc3)c2N)cc1	90	78	.	103
O=C1CCC(C(=O)Nc2ccccc2)=NN1	94	101	1	.

Limited to HCMV NEC inh, for some of the entries so far:
compound | HCMV NEC inh
CCOC(=O)c1ccc2nsnc2c1 | -69
COCc1cc(=O)oc2cc(NC(=O)c3ccc(C(C)(C)C)cc3)ccc12 | -6

Following part
SMILES	Sa growth inh	Sa growth inh second temp	HCMV NEC inh	GIV Gai3 FP
N#CC1=C(O)Cn2c1nc1ccc(Br)cc1c2=O	135	65	-7	.
Cc1ccc(NC(=O)Cn2c(Cc3ccccc3)nc3sc4c(c3c2=O)CCCC4)c(Br)c1	.	.	-11	104
Nc1c(-c2ccccc2)cnc2ncnn12	.	.	0&-21	93
Cc1ccc2c(c1)-c1onc(C(=O)NCCCN3CCCCC3)c1CO2	107	88	.	105
COc1ccccc1CNC(=O)Cn1c(-c2ccc(F)cc2)cc(C(C)=O)c1C	114	70	.	99
NC(=O)c1ccc(NC(=O)CCCSc2ccccc2)cc1	109	101	-4	.
Cc1ccc(N2C(=O)C(CC(=O)Nc3ccc(F)cc3)N(CCC3=CCCCC3)C2=O)cc1 (configuration not stated)	97	88	-17	100
COc1ccccc1-c1c(C(F)(F)F)oc2c(CN3CCOCC3)c(O)ccc2c1=O	.	.	-3	100
COc1cc(C=NCc2ccco2)ccc1O	89	86	-9	.
NC(=O)COc1ccc(-c2noc(COc3ccccc3)n2)cc1	101	88	-5	103
COCc1cc(C)nc2sc(C(=O)c3ccccc3)c(NC(=O)c3ccccc3)c12	.	.	-30	106
Cn1c(=O)c2c(nc(Sc3ncnn3Cc3ccccc3)n2C)n(C)c1=O	.	.	-2	104
Cc1cc(=O)[nH]c2ccc(S(=O)(=O)NC3CCCCC3)cc12	89	77	-4	100
C[n+]1ccc(/C=C/c2ccc(N3CCCC3)o2)cc1	98	101	-14	104
CCOc1ccc(C2c3[nH]c4ccccc4c3CCN2C(=O)CSCc2ccc(F)cc2)cc1 (configuration not stated)	100	106	.	107

Shown as labelled records: part of the list above.
COc1ccccc1CNC(=O)Cn1c(-c2ccc(F)cc2)cc(C(C)=O)c1C
  Sa growth inh = 114
  Sa growth inh second temp = 70
  HCMV NEC inh = .
  GIV Gai3 FP = 99

COc1cc(C=NCc2ccco2)ccc1O
  Sa growth inh = 89
  Sa growth inh second temp = 86
  HCMV NEC inh = -9
  GIV Gai3 FP = .

CCN1CCN(C(=O)c2ccc(/C=C3/Sc4ccccc4N(Cc4ccccc4C)C3=O)cc2)CC1
  Sa growth inh = 97
  Sa growth inh second temp = 86
  HCMV NEC inh = .
  GIV Gai3 FP = 108

NC(=O)c1ccc(NC(=O)CCCSc2ccccc2)cc1
  Sa growth inh = 109
  Sa growth inh second temp = 101
  HCMV NEC inh = -4
  GIV Gai3 FP = .

Other results follow:
SMILES	Sa growth inh	Sa growth inh second temp	HCMV NEC inh	GIV Gai3 FP
COc1ccccc1CNC(=O)CCc1c(C)nc2cc(-c3ccccc3OC)nn2c1C	107	85	-14	102
COc1ccccc1NC(=O)NCCc1nc2cccnc2n1-c1ccccc1	.	.	-14	107
O=c1oc2cc(O)c(O)cc2c2c1CCC2	.	.	-73	98
COc1ccc(CC(=O)NC2CCN(S(=O)(=O)c3ccccc3C(=O)O)CC2)cc1OC	98	82	-4	98
COC(=O)c1cc2c(s1)-c1cc(F)ccc1OC2	92	90	-23	103
COc1cc(C2NC(=O)C(C#N)=C(SC)S2)cc(OC)c1OC (configuration not stated)	88	84	-19	101
Cc1ccc(NC(=O)C2CCC(CNS(=O)(=O)c3ccc4c(c3)CCCC(=O)N4)CC2)cc1F (configuration not stated)	80	88	.	97
CN1CCN(Cc2c(O)ccc3cc(Br)ccc23)CC1	95	90	-58	.
Cn1c(CC2CCS(=O)(=O)C2)n[nH]c1=S (configuration not stated)	107	102	4	.
Fc1ccc(-c2noc(-c3ccc(NCc4ccc5c(c4)OCO5)nn3)n2)cc1	.	.	-26	97
COc1cccc(Oc2ccc(OC)cc2C(=O)O)c1	81	85	-28	97
CCN(CC)C(=O)/C(C#N)=C/c1ccc(OC)cc1	97	87	-3	99
CCOc1ccc(NC(=O)N2CCN(Cc3nc4cc(Cl)ccc4o3)CC2)cc1	.	.	-4	112
Cc1nc2sc3ccccc3n2c(=O)c1S(=O)(=O)Nc1ccccc1Br	.	.	-39	104
COc1ccccc1CNC(=O)C1CCCN(c2nnc(C)c3c(C)n(-c4ccccc4)nc23)C1 (configuration not stated)	105	87	.	111
O=C(CSc1nccc(=O)[nH]1)c1cccs1	102	101	-19	103
OCc1ccccc1CN1CCCCC1	90	92	.	104
Cn1cccc1C#N	80	80	-30	.
O=C(c1ccc(F)cc1)N1CC(OCc2ccc(F)cc2)C1	.	.	-21	100
CCOc1ccc(NC(=O)Cn2c(=O)cc(C)c3c(C)nn(-c4cccc(Cl)c4C)c32)cc1	102	101	.	103
Cc1cccc(N(Cc2ccccc2)C(=O)c2nc3nc(C)cc(C)n3n2)c1	69	84	-3	.
CCc1ccccc1NC(=O)C1CCCN(S(=O)(=O)c2ccc3[nH]c(=O)ccc3c2)C1 (configuration not stated)	112	82	.	103
O=C1NC(=O)C2C1C1(c3ccccc3)C(=O)C2(c2ccccc2)C(c2ccc3c(c2)OCO3)=C1c1ccc2c(c1)OCO2 (configuration not stated)	.	.	-9	101
Cc1ccc(-n2nc(N3CCCN(C(=O)C4CCCO4)CC3)ccc2=O)cc1C (configuration not stated)	.	.	-44	107
CCN(C(=O)Cn1cccc1C1=NC(c2ccccc2)CO1)c1cccc(C)c1 (configuration not stated)	96	64	.	100
CCn1c2ccccc2n2c(C(=O)OC)c(C)nc12	96	80	.	102
FC(F)C(F)(F)c1cc(-c2ccccc2)n[nH]1	96	82	-5	94
COC(=O)c1ccc(O)c(/C=N/N(CCO)C2=NS(=O)(=O)c3ccccc32)c1	98	39	.	125
C=CCn1c(COC)nnc1SCC(=O)c1ccc(Br)cc1	96	91	11	107
O=c1c2sc3ncccc3c2nc(SCc2ccc(Br)cc2)n1CC1CCCO1 (configuration not stated)	.	.	16	97

Two compounds picked at random from the list so far:
SMILES	Sa growth inh	Sa growth inh second temp	HCMV NEC inh	GIV Gai3 FP
Cc1ccc(NC(=O)Cn2c(Cc3ccccc3)nc3sc4c(c3c2=O)CCCC4)c(Br)c1	.	.	-11	104
O=C(c1ccc(F)cc1)N1CC(OCc2ccc(F)cc2)C1	.	.	-21	100

Additional results.
SMILES	Sa growth inh	Sa growth inh second temp	HCMV NEC inh	GIV Gai3 FP
COc1cc(NC(=O)CNC(=O)Cn2c(C)cc3ccccc3c2=O)cc(OC)c1OC	78	93	-11	109
CS(=O)(=O)Nc1ccc(C2=NN(C(=O)c3ccccc3)C(c3ccco3)C2)cc1 (configuration not stated)	83	40	-41	103
CCOC(=O)Cn1c(=O)cc(-c2ccccc2)c2c(C)nn(C)c21	100	96	.	104
COc1ccc(S(=O)(=O)N(C)Cc2nc(-c3cccc(C)c3)no2)cc1	100	87	-23	98
O=C(NCCCN1CCCCC1)c1[nH]nc2c1COc1ccccc1-2	115	84	-23	97
CN(C)CCN(C(=O)c1ccc(Cl)s1)c1nc2cc3c(cc2s1)OCCO3	87	92	9	95
Brc1ccc(NCc2ccco2)cc1	107	96	-26	108
Cc1ccc2nc(NC(=O)CCNS(=O)(=O)c3cccs3)sc2c1	85	76	.	112
Cc1cc(C)cc(-n2c(SCC(=O)NC3CCCCC3)nc3c([nH]c4ccccc43)c2=O)c1	118	89	.	106
COc1cc(C2C(C(=O)Nc3ccccc3)=C(C)Nc3nc(SCc4ccccc4F)nn32)cc(OC)c1OC (configuration not stated)	93	112	-51	110
O=C(O)c1cc2c3c(c1)C1C=CCC1C(c1ccc(Cl)cc1)N3CC1CC=CC21 (configuration not stated)	.	.	-15	111
N#Cc1cccc(NC(=O)COC(=O)/C=C/c2ccccc2)c1	113	85	-33	.
COc1ccc(Cl)cc1NC(=O)c1cc2c([nH]c1=O)CC(C)(C)CC2=O	.	.	-30	100
O=C(CCN1C(=O)C2C3C=CC(C3)C2C1=O)NC(c1ccccc1)c1ccccc1 (configuration not stated)	86	99	.	110
COc1ccc(OC)c(NC(=O)C(C)Oc2cc(C(F)(F)F)c3c(C)nn(C)c3n2)c1 (configuration not stated)	.	.	-15	112
O=C(c1ccc(C(F)(F)F)cc1)N1CCN(C(=O)c2ccco2)CC1	89	88	-16	97
CCOc1ccc(N2C(=O)c3cccnc3C2=O)cc1	.	.	-67	100
CCCN(CCC)C(=O)CSc1nc2sc3c(c2c(=O)n1-c1ccccc1)CCN(C(C)=O)C3	96	109	22&-10	107&108
Cc1cc(NCc2ccccc2)n2ncc(-c3ccc(F)cc3)c2n1	.	.	11	110
Cc1nc2c(c(C)c1CCC(=O)NCC(N)=O)c(=O)n(C)c(=O)n2C	91	92	-21	99
COc1ccc(/C=C\c2onc(C)c2S(=O)(=O)N2CCC(C(=O)Nc3ccccc3OC)CC2)cc1	.	.	-23	108
O=C(c1ccc(NS(=O)(=O)c2ccccc2)cc1)N1CCN(Cc2ccc3c(c2)OCO3)CC1	98	106	10	106
COc1cc2c(cc1OC)/C(=C/C(N)=O)NC(C)(C)C2	106	92	-15	104
C=Cc1ccc(CSc2nc(-c3ccc(C)cc3)nc3c2Cc2c(CO)cnc(C)c2O3)cc1	103	95	.	102
COc1ccc(C)cc1NC(=O)c1c(C(=O)Nc2cccc(C)c2C)sc2nc(C)cc(=O)n12	104	88	-8	102
CCOC(=O)/C(C#N)=C(\C)c1ccc(NC(C)=O)cc1	101	88	-24	97
Cc1cccc(NC(=O)NCc2nc(-c3ccccc3C)oc2C)c1	.	.	-30	106
CCc1ccc(NC(=O)C(C)OC(=O)c2ccccc2NC(=O)c2ccco2)cc1 (configuration not stated)	72	84	1	.
CCCOc1ccc(C(=O)Nc2ccc(NC(=O)c3ccc(Br)cc3)cc2)cc1	82	92	2	105
Oc1cccc(-c2csc3nc4ccccc4n23)c1	109	88	-19	104
O=C(Oc1ccc(C2Oc3ccccc3C3CC(c4ccccc4)=NN32)cc1)c1ccc(Br)cc1 (configuration not stated)	.	.	-33	98
O=C(c1cc(C2CC2)nn1-c1ccccc1)N(CC1CCCO1)c1nc2ccccc2s1 (configuration not stated)	114	97	10	.
O=C1C2C=CC=CC2=NC(=S)N1CCN1CCC(=C(c2ccc(F)cc2)c2ccc(F)cc2)CC1 (configuration not stated)	.	.	-10	106
Cc1ccc(NC(=O)Nc2ccc(SC(F)F)cc2)cc1	75	86	-14	.
N#CC(C#N)=CNc1cc(-c2ccc(Cl)cc2)sc1C(N)=O	80	67	-46	114
Cc1cc(C)nc(Nc2nc3ccccc3c(=O)[nH]2)n1	113	98	-14	107
Cc1ccc(-n2c(=O)c3c(c4cc(C)ccc4n3C)n(CC(=O)c3ccc(Cl)cc3)c2=O)cc1	98	98	.	113
O=C1c2ccccc2NC(c2ccccc2)N1NS(=O)(=O)c1ccccc1 (configuration not stated)	79	87	.	108
COC(=O)CNC(=O)c1sc2nc(C)nc(N3CCN(c4ccccn4)CC3)c2c1C	.	.	-28&-18	106&101
O=C(NC1CCCC1)c1cc(-c2ccccc2O)no1	98	88	.	106
Cc1noc(/C=C/c2cccs2)c1S(=O)(=O)N1CCC(C(=O)NCc2ccccc2Cl)CC1	98	90	-32	111
CCOC(=O)CC(NC(=O)CCc1c(C)nc2c(c1C)c(=O)n(C)c(=O)n2C)c1ccc(OCC)c(OC)c1 (configuration not stated)	110	88	-16	105
Cc1ccccc1-c1nc(Cn2cnc3oc(C)c(C)c3c2=O)c(C)o1	.	.	-2	105
Cc1cc(C)cc(C(=O)Nc2cccc(-c3nc4ncccc4o3)c2C)c1	89	89	-19	101
CC1CCN(S(=O)(=O)c2cc(C(=O)NCc3ccc(N(C)C)cc3)n(C)c2)CC1	94	82	.	96
CC(=O)N1CC(C)Oc2ccc(S(=O)(=O)NC(C)c3ccccc3)cc21 (configuration not stated)	90	82	-40	100
CCc1ccccc1Nc1nc(N)nc(CSc2nncn2C)n1	93	87	-20	.
C=CCC1C(=O)N(S(=O)(=O)c2ccc(Cl)cc2)N=C1CCC (configuration not stated)	67	87	19	99
